TsaE inh: qHTS Assay for Inhibitors of YjeE | hit rate 0.05% among 71,000 | purified YjeE, fluorescence polarisation of a bound ADP probe | AID 605, 2007 | Potency, µM | tRNA threonylcarbamoyladenosine biosynthesis protein TsaE (Escherichia coli (strain …; active = well fitted falling curve; inconclusive = weaker or top-dose-only fall, or a rising curve; inactive = flat or poorly fitted curve;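 also: top concentration of the series not given in the record; excess ADP was the control for the full effect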
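Fluorescence polarization of a BODIPY Texas Red–ADP probe (2 uM) bound to purified YjeE (10 uM) was read after 15 min room-temperature incubation with compounds. Loss of polarization marks inhibitors; ADP serves as titrated control.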
PK Bst: Pyruvate Kinase | hit rate 1.2% among 51,000 | AID 361, 2006 | partly purified Bacillus stearothermophilus pyruvate kinase, luminescence ATP production; ribose 5-phosphate activator present at AC10 | Potency, µM; in the data active means potency below about 11 µM; inconclusive means mostly about 12 µM to 25 µM; inactive means weaker than that;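 the screen sought inhibitors and activators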;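 also: potency is read from the fitted curve at half-maximal effect; scaled between full activation by ribose 5 phosphate and full inhibition by luteolin; about four in five hits inhibit and the cells do not say which; series up to 57 µM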
An asterisk follows results filed as active; i = inactive; ? = inconclusive; . = not tested or not shown.

SMILES	TsaE inh	PK Bst
O=C(O)CCSCc1ccccc1F	i	>57
CCCOc1ccc(C(=O)N2CCN(c3ccc(NC(=O)CC)cc3Cl)CC2)cc1	i	>57
CC(=O)N1CCC(=O)N(C(C)C)c2ccccc21	i	>57
CCOC(=O)C(CC)Sc1ncnc2nc[nH]c12 (centres undefined)	i	>57
Cc1ccc(S(=O)(=O)Cn2nnnc2C(c2ccccn2)N2CCN(c3ccccc3)CC2)cc1 (centres undefined)	i	>57
O=C(Nc1cnc2ccccn2c1=O)c1ccc(F)cc1	i	>57
CC(C)c1cc(C(=O)NCc2ccco2)no1	i	.
Cc1ccccc1-c1nc(CS(=O)(=O)CC(=O)N(C)C2CCCCC2)c(C)o1	i	.
CCOC(=O)C1CCCN(c2c(NCc3ccco3)c(=O)c2=O)C1 (centres undefined)	i	.
Cc1cnc(CNc2cc(-c3ccccc3CN(C)C)ncn2)cn1	i	.
O=C(c1ccco1)N1CCN(CC2CC3C=CC2C3)CC1 (centres undefined)	i	>57
Cc1ccnc(N(C(=O)c2cccs2)C(=O)c2cccs2)c1	i	>57
Cc1nc2ccc(N)cc2c(=O)n1Cc1ccc(Cl)cc1	i	>57
COCn1c(-c2cccc(Br)c2)nc2ccccc21	i	.
COC(=O)c1ccc(OCCN2C3=NCCN3c3ccccc32)cc1	i	>57
Cc1cc(CC(C)C)n(-c2nc3ccccc3c(=O)n2OCC(N)=O)n1	i	>57
N#Cc1cccc(-c2ccc3ncnc(NCc4cccs4)c3c2)c1	i	.
CCOC(=O)Nc1ccccc1N1C(=O)c2ccccc2C1=O	i	>57
CCc1ccc(C(=O)NCC2COc3ccccc3O2)o1 (centres undefined)	i	.
Cc1cc(S(=O)(=O)N(C)CCc2ccccc2)ccc1-n1cnnn1	i	>57
CCOc1cc(-c2ccccc2)nc(N)n1	i	.
Cc1cc(=O)n2nc(N3CCC(C(=O)N4CCN(Cc5ccccc5)CC4)CC3)sc2n1	i	>57
CC1(C)CC(=O)N(CC(=O)NCc2ccccc2)c2ccccc2S1(=O)=O	i	.
O=C(O)CC1CCC(=C(Cl)Cl)C1 (centres undefined)	i	>11
O=C(CN1C(=O)c2cccc3cccc1c23)NCC1CCCO1 (centres undefined)	i	?

Reprinted from the part before: 5 compounds, then new ones.
SMILES	TsaE inh	PK Bst
CCOc1cc(-c2ccccc2)nc(N)n1	i	.
Cc1cc(=O)n2nc(N3CCC(C(=O)N4CCN(Cc5ccccc5)CC4)CC3)sc2n1	i	>57
CC1(C)CC(=O)N(CC(=O)NCc2ccccc2)c2ccccc2S1(=O)=O	i	.
O=C(O)CC1CCC(=C(Cl)Cl)C1 (centres undefined)	i	>11
O=C(CN1C(=O)c2cccc3cccc1c23)NCC1CCCO1 (centres undefined)	i	?
CCN1CCN(c2ncnc3c2oc2nc(C)c4c(c23)CC(C)(C)OC4)CC1	i	>57
COc1ccc(CCNC(=O)C2CCN(S(C)(=O)=O)CC2)cc1OC	i	>57
COc1ccc2c(c1)[nH]c1c(=O)n(CCc3cnc[nH]3)cnc12	i	>57
COc1ccc(CCC(=O)NCCc2cn3c(C)csc3n2)cc1	i	.
Cc1nc2c(-c3ccccc3)c(C)nn2c(C)c1CC(=O)O	i	>57
COC(=O)c1oc2ccc(Br)cc2c1NC(=O)CN1CCN(C)CC1	i	>57
O=C1c2ccccc2C(=O)N1CCSc1nncs1	i	>57
CCOC(=O)N1CCN(C(=O)CSCC(=O)N=c2sc3cc(OC)ccc3n2C)CC1	i	>57
Cc1ccc(C(=O)N2CCOCC2)cc1Cl	i	>57
O=C(NCCN1CCOCC1)c1ccc2c(c1)ncn2C1CCCC1	i	.
Cc1noc(C)c1C(=O)N1CCC2(CC1)CCN(c1ccncc1)CC2	i	.
Cn1c(NC(=O)C2CCCO2)cc(=O)n(C)c1=O (centres undefined)	i	.
CS(=O)(=O)c1nncn1-c1ccccc1	i	>57
Cc1nnc(Nc2ccc3c(c2)ncn3C)c2ccccc12	i	>57
O=C(CSc1nnc(CNC(=O)c2ccccc2F)o1)c1ccc(Cl)cc1	i	.
COc1cc(C)nc(Nc2nc(C)c(C(C)=O)s2)n1	.	>26
c1ccc(-c2nnc(-c3ccco3)n2-c2ccccc2)cc1	i	>57
COc1ccc(CCN(C(=O)c2ccc(F)cc2)C2=CC3CCC(C2)N3C)cc1OC (centres undefined)	i	>57
O=C(CNC(=O)c1ccc(Cl)cc1)NCCCn1ccnc1	i	>57
Cc1nn(Cc2ccccc2)c(Cl)c1C(=O)NCc1ccc(C)n1C	i	>57
COc1ccc(OC)c2[nH]c(=O)c(CCNC(=O)c3ccc(Br)o3)cc12	i	?
CCOC(=O)CNC(=O)CSc1nc2cccnc2n1C	i	>57
CCc1ccc(-c2nn[nH]n2)cc1	i	.
CC(C)n1c(SCc2ccccc2F)nc2c1c(=O)n(C)c(=O)n2C	i	.
COC(=O)c1sc(N)c(C(=O)OC)c1CSc1nc2sc3c(c2c(=O)n1C)CCC3	i	>57

Rewritten field by field: entries from further up
> COc1ccc(CCN(C(=O)c2ccc(F)cc2)C2=CC3CCC(C2)N3C)cc1OC (centres undefined)
- TsaE inh: i
- PK Bst: >57

> O=C(CNC(=O)c1ccc(Cl)cc1)NCCCn1ccnc1
- TsaE inh: i
- PK Bst: >57

> Cc1nn(Cc2ccccc2)c(Cl)c1C(=O)NCc1ccc(C)n1C
- TsaE inh: i
- PK Bst: >57

> COc1ccc(OC)c2[nH]c(=O)c(CCNC(=O)c3ccc(Br)o3)cc12
- TsaE inh: i
- PK Bst: ?

Continued:
SMILES	TsaE inh	PK Bst
O=C(N1CCN(c2ccccc2)CC1)C(F)(F)C(F)F	i	.
C#CCN1C(=O)C(O)(CC(=O)c2ccc3c(c2)OCCO3)c2ccccc21 (centres undefined)	i	.
COc1ccc(OCC(O)CNc2ccc(Br)cc2)cc1 (centres undefined)	i	>57
COc1ccc(COC(=O)c2ccc(N3CCCC3=O)cc2)cc1F	i	>57
COc1cccc(NS(=O)(=O)c2ccc3[nH]cc(C(=O)NCCCOC(C)C)c(=O)c3c2)c1	i	>57
CCOc1cccc2cc(-c3csc(NC(=O)CCC(=O)N4CCN(C)CC4)n3)c(=O)oc12	i	.
N=c1n(CCO)c2ccccc2n1Cc1ccc(Cl)cc1	i	>57
c1ccc(Cc2nnc3sc(-c4cccs4)nn23)cc1	i	>57
CCOc1ccccc1C1C2C(=O)N(c3ccccc3)C(=O)C2ON1c1ccccc1 (centres undefined)	i	>57
O=C1CC(N2CCC(O)(c3ccc(Cl)cc3)CC2)C(=O)N1 (centres undefined)	i	>57
CCc1nnc(NC(=O)C2CC(=O)N(Cc3ccco3)C2)s1 (centres undefined)	i	>57
Cc1ccoc1C(=O)NCCCNC(=O)c1occc1C	i	>57
O=C(CSc1nnc(Cc2cccs2)n1Cc1ccco1)Nc1cccc(Cl)c1	i	>57
CCc1ccc(NS(=O)(=O)c2ccc3[nH]cc(C(=O)N4CCCCC4)c(=O)c3c2)cc1	i	?
Cc1ccccc1CN1C2=NCCN2c2ccccc21	i	>57
OCCNc1nc(-c2cccnc2)nc2ccccc12	i	.
Cc1cc(F)ccc1S(=O)(=O)Nc1ccccc1C(=O)Nc1ncn[nH]1	i	>57
O=C(NCC(c1cccnc1)N1CCN(c2ccccc2F)CC1)c1ccccc1 (centres undefined)	i	.
CC(C)Cn1c(SCC(=O)NC2CCCc3ccccc32)nc(O)cc1=O (centres undefined)	i	>57
O=c1[nH]c2ccc(S(=O)(=O)N3CCN(C4CCCCC4)CC3)cc2[nH]c1=O	i	>57
Cc1cccc(N2C(=O)CC(N3CCN(c4cccc(C(F)(F)F)c4)CC3)C2=O)c1 (centres undefined)	i	.
Cc1cc(NC(=O)CCC(=O)N(CC(=O)NC2CCCC2)c2ccc3c(c2)OCCO3)no1	i	>57
CCNC(=O)CC1C(=O)N(c2ccc(F)cc2)C(=O)N1CCc1ccc(OC)cc1 (centres undefined)	i	>57
COc1ccccc1-c1nccc(NCc2cccnc2)n1	i	.
O=C(c1ccccc1NS(=O)(=O)c1ccc(Br)s1)N1CCOCC1	i	>57
Carrying on:
SMILES	TsaE inh	PK Bst
O=C(c1ccncc1)N1CCC2(CC1)CN(c1ccccc1)C2	i	.
CCC(=O)N(Cc1cc(=O)[nH]c2ccccc12)C1CCCCC1	i	>57
CC[C@H](C(=O)c1cccs1)C(O)(C(F)(F)F)C(F)(F)F	i	.
CCS(=O)(=O)c1nc2ccccc2n1CC(=O)N1CCCCC1	i	>57
COc1ccc2[nH]cc(C(=O)CN3CCN(C(=O)c4ccco4)CC3)c2c1	i	>57
O=C(Nc1cccc(-c2cn3cccnc3n2)c1)c1ccc(Br)o1	i	>57
Cc1cc(C)nc(N(C#N)CC(=O)Nc2ccccc2)n1	i	>57
COc1cccc(Cn2c(=O)c(C)nc3cnc(N4CCN(C)CC4)nc32)c1	i	.
CN1CCN(c2ncc3nc(-c4ccccc4)c(=O)n(Cc4ccc(F)cc4)c3n2)CC1	i	.
COc1ccc(NC(=O)Nc2cccc(C)n2)cc1	i	.
Cc1ccc(N(CC(O)CN2CCCC2)S(=O)(=O)c2ccc(C)cc2)cc1 (centres undefined)	.	>26
COc1ccc(-n2c(SCC(N)=O)nnc2-c2ccccc2F)cc1	i	>57
COc1cccc(-c2csc(N3CCN(CC(=O)Nc4ccc5c(c4)OCO5)CC3)n2)c1	i	>57
COc1cc2c(cc1OC)CN(S(=O)(=O)c1ccc3c(c1)OCCO3)CC2	i	>57
COCCNC(=O)[C@@]1(Cc2ccccc2)C=C[C@@H](C)N1C(C)=O	i	.
C=CCn1c(SCC(=O)c2cccs2)nc2sc(C)cc2c1=O	i	>57
CCCC1(C(=O)OC)C=C2C(=C(c3ccccc3)C(=O)C2C)CN1 (centres undefined)	i	.
COc1ccccc1-c1nnc(NC(=O)OCC(C)C)s1	i	>57
Cc1cc(N2CCN(C)CC2)nc2ccc(NC(=O)c3ccc4c(c3)OCO4)cc12	i	.
Cc1cc(C)c(S(=O)(=O)N(CC(=O)O)C2CCCCC2)c(C)c1	i	>57
Cc1cnnc2c1-c1nonc1CC2	i	>57
COC(=O)c1ccc(OC(=O)C2CC(=O)N(c3ccc(C)cc3C)C2)cc1 (centres undefined)	i	>57
CCOC(=O)C1C(=O)NC(N2CCOCC2)=NC1C(C)C (centres undefined)	i	>57
CCOc1ccccc1C(=O)Nc1nccs1	i	i
CC(=O)Nc1nc2n(n1)C(c1ccccc1)C=C(c1ccccc1)N2 (centres undefined)	i	.
Following part
SMILES	TsaE inh	PK Bst
O=C(OCCN1CCCCC1)c1ccc(O)cc1	i	.
CC(=O)N1CCn2c3c(c(=O)c4cc(C)ccc42)CCC31 (centres undefined)	i	.
Cc1cc(C)c(S(=O)(=O)Nc2ccccc2C(F)(F)F)c(C)c1	i	.
CCn1cc(-c2cc(C(F)(F)F)n3nc(C(=O)O)cc3n2)c(C)n1	i	>57
COC(=O)c1ccccc1NC(=O)CSc1nnnn1C1CCCCC1	i	>57
CCOc1cc(-c2noc(CCC(=O)Nc3cccnc3)n2)ccc1OC	i	>57
CC(NC(=O)CN1CCC(C(N)=O)CC1)c1ccccc1 (centres undefined)	i	>57
CN1CCN(C(CNS(=O)(=O)c2ccc(Cl)cc2)c2cccnc2)CC1 (centres undefined)	i	>57
CCOC(=O)c1cccnc1SC(CC)C(=O)N1CCOCC1 (centres undefined)	i	>57
CCOC(=O)c1c(CN2CCCCC2)n(C)c2cc(Br)c(OC)cc12	i	>57
CC(=O)N1CCC[C@@]2(CCN(Cc3cc(C(F)(F)F)cc(C(F)(F)F)c3)C2)C1	i	.
O=C(Nc1nc2ccc(S(=O)(=O)N3CCCC3)cc2s1)C1CCCCC1	i	>57
CCc1nc2cc(C)nn2c2nc3ccccc3n12	i	.
CC(C)OC(=O)c1cccnc1SCc1cc(=O)n2ccccc2n1	i	>57
CCCCCCP(=O)(O)c1ccccc1	i	.
Cc1cc(NC(=O)C2CCN(S(=O)(=O)c3cnc[nH]3)CC2)ccc1Br	i	>57
COc1ccc(OC)c(S(=O)(=O)N2Cc3ccccc3CC2C(=O)O)c1 (centres undefined)	i	>57
Cc1noc(C)c1CSc1nnc(-c2cccnc2)n1C1CCCCC1C (centres undefined)	i	>57
CC1=C(C(=O)OC(C)C)C(c2ccccc2Cl)CC(=O)N1 (centres undefined)	i	>57
COC(=O)[C@@H]1C(O)[C@@H](C(=O)OC)[C@H](C)N(C)[C@@H]1C (some centres undefined)	i	.
NC(=O)c1nsnc1-c1ccccc1O	i	>57
O=C(CS(=O)(=O)Cc1ccccc1)Nc1nc2c(s1)CCCC2	i	>57
OC[C@@H]1O[C@@H](N2CCN([C@@H]3O[C@@H](CO)[C@@H](O)[C@H](O)[C@H]3O)CC2)[C@@H](O)[C@H](O)[C@H]1O	i	.
CCN(CC)C(=O)Cn1c(=O)n(Cc2ccccc2Cl)c2c1c(=O)n(C)c(=O)n2C	i	>57
Cc1cc(Nc2ccccc2)n(-c2ccccc2)n1	i	>57
COc1ccccc1C(=O)N1CCCN(C(=O)c2ccccc2OC)CC1	i	>57

Part of the list above, reformatted:
Compound,TsaE inh,PK Bst
COc1ccc2c(c1)[nH]c1c(=O)n(CCc3cnc[nH]3)cnc12,i,>57
COc1ccc(CCC(=O)NCCc2cn3c(C)csc3n2)cc1,i,.
Cc1nc2c(-c3ccccc3)c(C)nn2c(C)c1CC(=O)O,i,>57
COC(=O)c1oc2ccc(Br)cc2c1NC(=O)CN1CCN(C)CC1,i,>57
O=C1c2ccccc2C(=O)N1CCSc1nncs1,i,>57

Only part of the results is shown; the hit share may differ from the screen's.
